Ecoli rRNA inh = inhibits bacterial ribosomal RNA function over humanized ribosomes; E. coli WT GFP vs humanized-ribosome RFP mutants, fluorescence, 24 h; hits give low values; DMSO median 0, no signal -100; GFP signal change (wild-type ribosome), % (concentration not given with the values); hit rate 1.6% among 350,000;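 active = significant combined selectivity score with lowered wild-type GFP, culture density cut under 30%, mutant RFP and density less affected; inactive = any of these conditions unmet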; also: one replicate is shown; some compounds called inactive have numbers as strong as hits
RanGTP-Imp inh = disruptors of Ran-importin-beta complex formation – biochemical, FRET, CFP-Ran, YFP-importin-beta, homogeneous, primary screen | hit rate 1.1% among 300,000 | inhibition, % (test concentration not listed) | AID 2216 | cell-free CFP-Ran/YFP-importin-beta FRET ratio;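 active = most replicates above 15%; inconclusive = exactly half above 15%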;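 also: 0% = DMSO wells and 100% = Ran loaded with GDP instead of GTP; wells of about 40 µL received 100 nL stock; the first replicate is given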
Calb FLC = affects C. albicans growth with fluconazole | C. albicans CaCi-2 (fluconazole-resistant clinical isolate) + fluconazole, Alamar Blue growth, 48 h | growth inhibition, % (concentration not given with the values) | AID 1979 | hit rate 0.57% among 300,000;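 active = most replicates above 75%; inconclusive = exactly half above 75%; inactive = most below 75%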;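 also: all wells also contain fluconazole at 8 µg/ml as a sub-toxic cotreatment; 0% = median of DMSO wells and 100% = median of geldanamycin control wells; wells of about 8 µL received 7.5 nL stock; the first replicate is given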
A1 inh = inhibitors of the anti-apoptotic protein A1, read as caspase activation | MEF A1-2A-BIM cells, Caspase-Glo 3/7 luminescence, 3 h; percent of clofoctol response, vehicle zero | caspase activation, % (test concentration not listed) | hit rate 0.066% among 330,000 | AID 2462;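 active = over half of replicate activation scores above 10%, or exactly half above 10 with the replicate mean above 10; inconclusive = replicate mean below 10 yet half the replicates above 10; inactive = over half of replicates below 10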;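 also: wells of about 30 µL received 50 nL stock; many hits fall short of the cut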
MLL AF4-AF9 inh = blocks AF4 peptide binding to human AF9. P42568. AlphaScreen, biotin-AF4 peptide binding to FLAG-AF9. inhibition, % at 10 µM. hit rate 0.47% among 350,000. AID 651704;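 active = every replicate reaching a set inhibition limit, whatever the replicate mean, cut at about 25% in these data; inconclusive = mean inhibition reaches that limit but some replicates miss it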;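 also: 0% = plate neutral control median and 100% = total signal loss; the record names both 10 and 1 µM as test concentration; the first replicate is given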
Target sequence (P42568 whole entry, looked up): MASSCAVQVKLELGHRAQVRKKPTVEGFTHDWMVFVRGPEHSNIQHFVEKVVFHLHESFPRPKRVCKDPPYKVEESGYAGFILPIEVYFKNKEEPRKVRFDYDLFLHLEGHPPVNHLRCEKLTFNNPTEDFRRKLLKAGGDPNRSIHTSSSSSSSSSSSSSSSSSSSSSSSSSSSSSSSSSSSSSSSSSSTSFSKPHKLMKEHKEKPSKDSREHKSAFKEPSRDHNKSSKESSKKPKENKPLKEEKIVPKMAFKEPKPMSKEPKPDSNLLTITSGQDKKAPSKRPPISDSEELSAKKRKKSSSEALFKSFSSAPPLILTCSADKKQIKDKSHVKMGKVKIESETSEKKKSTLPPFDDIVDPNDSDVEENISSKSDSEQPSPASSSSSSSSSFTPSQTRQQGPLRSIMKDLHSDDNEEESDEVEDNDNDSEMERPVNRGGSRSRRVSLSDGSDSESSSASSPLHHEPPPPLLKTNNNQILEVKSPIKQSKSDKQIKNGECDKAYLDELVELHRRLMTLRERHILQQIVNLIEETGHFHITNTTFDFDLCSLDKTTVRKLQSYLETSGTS
Vif TR-FRET = HIV-1 Vif–A3G interaction blockers – biochemical, TR-FRET, GST-Vif 1-94, biotin-A3G peptide, dose response retest, primary screen (AID 1117319). TR-FRET GST-Vif / biotin-A3G peptide binding; higher % means a stronger effect; test concentration not given here; strong numbers were not always called active. inhibition, %; hits with a dose series show IC50 in µM. hit rate 0.57% among 260,000;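 active = above the screen mean plus three standard deviations and confirmed in dose response; inconclusive = results disagree or hit not tested in dose response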;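 also: Vif residues 1-94 fused to GST binding biotinylated APOBEC3G peptide 110-148; 0% = full assay without inhibitor and 100% = GST in place of GST-Vif; retest series ran down from 100 µM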
Beta cell apopt = blocks beta cell apoptosis; protection from apoptosis, % (concentration not given with the values); hit rate 0.8% among 300,000; INS-1E cytokine-induced death, ATP luminescence, 48 h; percent of positive-control rescue, neutral wells zero;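 active = all replicates at 75% or more, or half of them and the mean; inconclusive = half reach 75% but not the mean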;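 also: 0% = cytokine-treated negative control wells and 100% = positive control rescue; higher means more ATP so stronger rescue from cytokine killing; wells of about 40 µL received 100 nL stock; the first replicate is given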
T cruzi repl = T. cruzi replication inhibition. inhibition, % (test concentration not listed). T. cruzi beta-gal in NIH3T3, luminescence, 90 h. hit rate 1.4% among 300,000;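 active = mean inhibition across valid replicates above about 55%, limit read from the data; inconclusive = mean below that limit but half or more replicates reach it; inactive = mean below it, under half of replicates reach it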;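 also: signal also drops with host cell toxicity which is not excluded here; 0% = plate median of DMSO wells and 100% = zero luminescence signal; higher percent means less beta-gal luminescence so fewer parasites; stock transfer was 50 nL into about 50 µL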
Ecoli rRNA inh OD600 = also measured in Ecoli rRNA inh; calls as there; OD600 change, %; measured here: OD600 growth;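 optical density of the mix in the first replicate; 0 = DMSO median and -100 = no signal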
Ecoli rRNA inh RFP = further read-out of Ecoli rRNA inh, marked with its call; RFP signal change, %; measured here: RFP humanized mutant strains;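 first replicate; 0 = DMSO median and -100 = no signal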
Numbers without * were called inactive; ? = inconclusive; nt = no result given. The list is partial; the hit share may differ from the screen's.

The first 2 records, to show the layout:
SMILES	Ecoli rRNA inh	Ecoli rRNA inh OD600	Ecoli rRNA inh RFP	RanGTP-Imp inh	Calb FLC	A1 inh	MLL AF4-AF9 inh	Vif TR-FRET	Beta cell apopt	T cruzi repl
COC(=O)NC1(C(=O)O)CCCC1	7	3	-6.8	4.7	-7	0.0	-12	-6%	0	-6
O=C(N/N=C/c1c[nH]c2ccccc12)c1cc(-c2ccc3ccccc3c2)n[nH]1	-56	-75	-26	-1.0	7	0.0	-0.3	nt	19	-35

All compounds of this part, previewed entries included:
SMILES	Ecoli rRNA inh	Ecoli rRNA inh OD600	Ecoli rRNA inh RFP	RanGTP-Imp inh	Calb FLC	A1 inh	MLL AF4-AF9 inh	Vif TR-FRET	Beta cell apopt	T cruzi repl
COC(=O)NC1(C(=O)O)CCCC1	7	3	-6.8	4.7	-7	0.0	-12	-6%	0	-6
O=C(N/N=C/c1c[nH]c2ccccc12)c1cc(-c2ccc3ccccc3c2)n[nH]1	-56	-75	-26	-1.0	7	0.0	-0.3	nt	19	-35
O=C(NCc1cccs1)C(=O)NCC1OCCCN1S(=O)(=O)c1cc(F)ccc1F (stereo unspecified)	-2	4	2.3	2.2	-7	0.6	1.8	-5%	10	-11
CCn1c(SCc2ccccc2)nc2cc(OC)c(OC)cc2c1=O	-16	-14	4.2	2.8	16	-0.9	4.6	nt	11	19
COc1ccc(S(=O)(=O)N(C)CC(=O)Nc2ccc(C(F)(F)F)cc2)cc1Cl	nt	nt	nt	1.6	4	0.1	nt	8%	3	9
CC1(C)CC(=O)C2=C(C1)NCN(Cc1ccc3c(c1)OCO3)C2	nt	nt	nt	2.8	9	-0.2	nt	92µM*	-10	-9
O=C1Nc2ncccc2OC1CCCl (stereo unspecified)	17	9	-8.2	1.3	-1	0.2	nt	1%	5	-5
CCOc1ccc(NC(=O)CSc2nnnn2C2CC2)cc1S(=O)(=O)N1CCCC1	5	13	-0.7	nt	nt	0.6	1.1	9%	2	nt
Cc1sc2ncnc(NCc3ccco3)c2c1C	nt	nt	nt	-1.2	12	-0.1	nt	23%	13	-18
O=C(NCCC1CCCCN1S(=O)(=O)c1ccccc1)C(=O)Nc1ccc(F)cc1F (stereo unspecified)	-11	-15	-0.9	5.2	10	-0.5	-3.5	nt	nt	4
COc1ccc2nc(C)cc(SCC(=O)N/N=C/c3ccc(O)cc3O)c2c1	nt	nt	nt	6.6	-40	-0.3	nt	nt	77*	-2
CN(C)C(CNC(=O)c1ccc2c(=O)n(-c3ccccc3F)c(=S)[nH]c2c1)Cc1ccccc1 (stereo unspecified)	-2	9	-16	1.2	-3	1.4	4.3	nt	2	5
CC(C)CC(=O)c1c[nH]c(C(=O)NCCCN2CCOCC2)c1	nt	nt	nt	-2.7	-20	nt	nt	-3%	-8	-17
COc1ccc(S(=O)(=O)Nc2nnc(C(C)(C)C)s2)cc1	3	2	-0.5	-0.8	?	0.1	-5.4	-2%	nt	0
CCn1cc(NC(=O)CCl)c(C)n1	nt	nt	nt	-0.3	-12	0.4	nt	nt	3	-10
COc1ccc(-c2cc(C(=O)N(C)Cc3ccc(OC)c(OC)c3OC)c3ccccc3n2)cc1OC	-14	-10	7.3	-2.7	1	-0.7	13	nt	12	-11
Cc1ccc(OC(=O)CCC(=O)Nc2ccc(Br)cc2)cc1	nt	nt	nt	0.8	-8	1.0	nt	-2%	-4	-17
CCc1ccc(-c2nc(CSCC(=O)NCCCN3CCCC3=O)c(C)o2)cc1	nt	nt	nt	5.7	-1	-0.4	nt	24%	-4	-21
NS(=O)(=O)c1ccc(OC(=O)CNC(=O)OCc2ccccc2)cc1	8	11	4.3	2.2	-5	-0.2	nt	nt	0	-28
CC1(C)Cc2ccccc2C(NNC(=O)c2ccc(Br)o2)=N1	2	5	1.4	1.8	-6	1.7	1.5	nt	-9	4
C/C(=N\Nc1ccccc1)c1cccc(N)c1	-3	7	-0.6	-0.7	2	0.0	0.9	nt	1	11
CCOC(=O)C1=C(C(F)(F)F)Nc2ncnn2C1c1cc(OC)ccc1OC (stereo unspecified)	nt	nt	nt	2.6	4	0.4	nt	-8%	-8	3
CCCCSc1nnc2c(n1)OC(C(=O)c1ccccc1)Nc1ccccc1-2 (stereo unspecified)	nt	nt	nt	2.1	23	nt	nt	-1%	nt	7
CCOCCOc1nc2c(c(=O)n(C)c(=O)n2C)n1CCc1ccccc1	nt	nt	nt	?	-1	0.1	nt	nt	8	8
c1ccc(CN2CCN(c3nc4ccccc4c4ccccc34)CC2)cc1	nt	nt	nt	4.4	4	-0.4	nt	?	-4	23
COc1ccc(C(=O)N2CCC(C(=O)c3c(C)cc(C)cc3C)CC2)cc1	-43	-43	-6.1	3.8	-4	0.2	-0.9	1%	6	-5
CCCCn1c(=O)c(C(=O)c2ccccc2)nc2ccccc21	nt	nt	nt	-1.7	-5	-0.5	nt	3%	-4	-7
CC(C)C(OC(=O)c1nsc(Cl)c1Cl)C(=O)NCc1ccc2c(c1)OCO2 (stereo unspecified)	nt	nt	nt	0.2	-40	-1.2	nt	9%	1	2
O=C(NCCCN1CCCC1=O)c1cccc(S(=O)(=O)N2CCCCC2)c1	nt	nt	nt	nt	nt	0.0	-0.4	8%	3	nt
CCOc1ccc(Nc2cc(=O)n(C)c(=O)n2C)cc1	nt	nt	nt	-15	-13	-0.2	nt	1%	1	10
COCCn1c(SCC(=O)Nc2c(C)n(C)n(-c3ccccc3)c2=O)nnc1-c1ccncc1	10	8	-0.8	nt	nt	0.2	2.1	nt	-4	nt
Cc1ccc(S(=O)(=O)NC2CCCc3ccccc32)cc1C (stereo unspecified)	nt	nt	nt	2.3	3	-0.8	nt	22%	-3	9
CCOc1ccc2[nH]c3c(N4CCC5(CC4)OCCO5)ncnc3c2c1	nt	nt	nt	4.3	12	0.7	5.1	-6%	-7	14
C=CCNC(=S)N/N=C/c1ccccc1OCCOc1ccccc1	1	0	-3.5	1.1	-51	-0.5	0.0	nt	5	-3
O=S(=O)(Nc1cccc(-c2cn3c(n2)SCC3)c1)c1ccc(F)cc1F	-1	-16	1.7	0.6	2	-0.9	1.5	nt	20	10
COc1ccc(-c2cc(=O)[nH]c(NCc3ccccc3)n2)cc1	nt	nt	nt	0.8	30	-0.1	nt	30%	-3	4
CCCCn1ccc(=O)c2c(C(F)(F)F)nccc21	nt	nt	nt	-0.7	-3	0.0	nt	13%	-5	-19
COC(=O)COc1ccc(NC(=O)c2ccco2)cc1	10	-3	-10	-3.8	-13	-0.1	-7.5	?	4	9
COc1cccc(NC(=O)N2CCCC2C(=O)Nc2ccc3c(c2)OCCO3)c1 (stereo unspecified)	5	-5	-5.4	?	-6	-0.7	-28	-5%	0	-1
O=C(Cc1ccc(Br)cc1)N1CCN(C(=O)c2ccco2)CC1	-2	5	-1.5	-1.1	2	-1.2	-6.3	-1%	6	-4
CC1(C)CC(=O)C2=C(C1)c1c(ccc3ccccc13)NC2c1ccc(C(=O)O)cc1 (stereo unspecified)	2	8	-1.2	-0.6	8	-0.3	-2.4	3%	0	-4
O=C(NNC(=O)C1CC(c2cccnc2)=NO1)Nc1ccccc1F (stereo unspecified)	35	29	-2.0	-0.5	10	0.4	-1.6	6%	-2	-5
CC(=O)N(c1ccccc1C)C1CCCC1	2	21	-4.2	3.4	?	0.2	1.4	6%	2	-4
Cc1ccc(OCCCCn2ccnc2C)c(C)c1	-16	-10	-0.4	-2.0	?	0.9	-1.7	-2%	-9	8
Cc1cccc(Cn2c(SCCN3CCCCC3)nc3c2c(=O)[nH]c(=O)n3C)c1	12	19	12	-0.5	-1	0.4	4.3	nt	0	25
Cc1cccc(NC(=O)CSc2nnc(NC(=O)c3ccc(S(=O)(=O)N4CCOCC4)cc3)s2)c1C	12	8	-3.8	0.7	27	0.3	0.7	15%	-4	-10
CN(NC(=O)/C=C/C(=O)O)c1ncc(C(F)(F)F)cc1Cl	5	0	-5.7	-1.5	-3	0.0	2.6	5%	-3	7
COc1ccc(NC(=O)C2CCCN2C(=O)Nc2ccccc2)cc1OC (stereo unspecified)	nt	nt	nt	0.9	4	1.3	nt	-7%	0	-4
C=CCC(O)(CC=C)C(C)N (stereo unspecified)	3	1	-7.1	3.7	-7	0.0	-1.1	4%	-8	-22
O=C(Oc1ccc2c(=O)c(Oc3ccc4ccccc4c3)coc2c1)c1ccco1	nt	nt	nt	4.7	-7	1.6	nt	-3%	0	-9
CC(C)(C)c1ccc(C(=O)NCCC(=O)N2CCN(c3ncccn3)CC2)cc1	nt	nt	nt	-2.7	-1	-0.1	nt	11%	-2	0
Cc1nn(-c2ccccc2)c(-n2cccc2)c1C(=O)O	nt	nt	nt	-1.3	14	-0.5	nt	27%	1	-14
COCCNC(=O)c1nn(-c2cc(OC)cc(OC)c2)c(=O)c2ccccc12	nt	nt	nt	22	4	-1.9	nt	?	-3	-9
CC(C)(C)Cc1nc2ccccc2n1CCc1ccccc1	nt	nt	nt	0.0	-5	0.3	nt	0%	-1	25
COc1ccc(C(=O)OCC(=O)c2ccc3c(c2)NC(=O)CO3)cc1S(=O)(=O)N1CCOCC1	-5	-15	-1.4	nt	nt	-1.2	-0.4	-1%	-4	nt
Cc1cccc2c1-c1sc(C(=O)NCCCN3CCc4ccccc4C3)cc1CO2	-60	-81	-22	0.7	11	-0.7	2.9	0%	-3	12
O=C(NCc1nc2ccccc2[nH]1)C1=C[C@H](c2csc3ccccc23)C[C@H](OCc2ccc(CO)cc2)O1	nt	nt	nt	-4.4	2	0.2	-0.8	0%	32	26
Cc1ccccc1-c1nc(CN2CCC(C(=O)NC3CC3)CC2)c(C)o1	4	10	-0.4	2.7	3	-0.1	2.4	0%	3	6
CCCCCCCCC(=O)Nc1cc(C)ccc1OC	nt	nt	nt	0.2	-11	1.0	nt	18%	nt	-10

Quoted from the results shown for reference:
SMILES	Ecoli rRNA inh	Ecoli rRNA inh OD600	Ecoli rRNA inh RFP	RanGTP-Imp inh	Calb FLC	A1 inh	MLL AF4-AF9 inh	Vif TR-FRET	Beta cell apopt	T cruzi repl
CC1(C)CC(=O)C2=C(C1)c1c(ccc3ccccc13)NC2c1ccc(C(=O)O)cc1 (stereo unspecified)	2	8	-1.2	-0.6	8	-0.3	-2.4	3%	0	-4
O=C(NNC(=O)C1CC(c2cccnc2)=NO1)Nc1ccccc1F (stereo unspecified)	35	29	-2.0	-0.5	10	0.4	-1.6	6%	-2	-5
